Vaccinia mCherry: qHTS for Stage-Specific Inhibitors of Vaccinia Orthopoxvirus: mCherry Reporter Primary qHTS; Vaccinia virus mCherry reporter infection, fluorescence; about a quarter of the inactives have no number; Potency, µM (titrated, usually from 36.5 µM), inactives show top-dose activity change, negative = inhibition, actives largely listed as inhibitors; 310,000 tested, 0.63% active; active = well fitted inhibition curve with a large enough effect; inconclusive = small, poorly fitted or top-dose-only effect; inactive = no such curve, though single readings can be large or run the other way; tested in A549 cells; note: nearly all actives have a fitted effect of over 35% in size; inactives centre near -10
Vaccinia Venus: qHTS for Stage-Specific Inhibitors of Vaccinia Orthopoxvirus: Venus Reporter Primary qHTS | Potency, µM (doses to about 36.5 µM), for the others: at the top dose activity change, negative = inhibition, usual class: inhibitors | Vaccinia virus Venus reporter expression, fluorescence | 330,000 tested, 0.46% active; active means well fitted inhibition curve with a large enough effect; inconclusive means small, poorly fitted or top-dose-only effect; inactive means no such curve, though single readings can be large or run the other way; tested in A549 cells; note: nearly all actives have a fitted effect of over 30% in size; inactives centre near -10
Numbers without * were called inactive; i = inactive; ? = inconclusive; nt = not tested or not shown; [ ] = remark or other dose. % is set by controls: 0 for no effect and ±100 for the full control effect; potency is the fitted concentration of half-maximal effect.

SMILES | Vaccinia mCherry | Vaccinia Venus
Oc1ccccc1-c1nc(-c2cccs2)c(-c2cccs2)[nH]1 | -25% | -26%
O=C(Cn1c2c(sc1=O)C1c3ccccc3OCC1CS2)Nc1ccc(Cl)cc1 (configuration not stated) | -9% | 6%
CN1CCN(CC(=O)n2c3c(c4ccccc42)CCCC3)CC1 | -13% | -9%
Cc1noc(C)c1S(=O)(=O)Nc1ccccc1Oc1ccccc1 | i[7.34 µM] | 2%[7.34 µM]
O=C(NC(=S)Nc1ccc(N2CCOCC2)cc1)c1cccc(Cl)c1 | -4% | -24%
Cc1nnc(SCC(=O)Nc2ccc(Oc3ccccc3)cc2)n1N | -1% | -14%
COc1ccc2ccccc2c1CN1CCc2nnc(C(NS(C)(=O)=O)C(C)C)n2CC1 (configuration not stated) | -7% | -11%
O=C(CSc1nc(C2CC2)nc2sc3c(c12)CCCC3)NCc1ccco1 | -11% | -9%
Clc1ccc(-c2nc(Cc3ccccc3)no2)cc1 | nt | -8%
O=C(Nc1ccc2c(c1)OCCO2)c1ccc(Cl)c(Cl)c1 | -9% | -3%
CC(C)CN1C(=O)C(=O)N(CC(=O)N2c3ccccc3NC(=O)CC2C)C1=O (configuration not stated) | -17% | -17%
COc1ccc(-c2oc(NC(=O)c3ccc(C)cc3)c(C#N)c2-c2ccc(OC)cc2)cc1 | i | -9%
O=C(Cn1c(NCCO)nc2ccccc21)c1cccs1 | nt | ?
COc1ccc(NS(=O)(=O)c2cccc(C(=O)O)c2)cc1S(=O)(=O)N1CCOCC1 | -14% | -8%
Cc1nc2ccccn2c1C(=O)N/N=C/c1ccc([N+](=O)[O-])cc1 | -10% | -3%
CCO[C@@H]1OC(C(=O)O)=C[C@H](c2ccc3c(c2)OCO3)[C@H]1CCCO | i | -5%
COc1ccc(NC(=O)C(CC(C)C)NC(=O)C2CCCCC2)cc1 (configuration not stated) | -7% | -8%
Cc1[nH]c(=O)[nH]c(=O)c1S(=O)(=O)N1CCN(c2ccccc2)CC1 | -14% | -6%
CN1CCN(C(=O)/C(=C/c2cccnc2)NC(=O)c2cccc(Br)c2)CC1 | -15% | -1%
CC(NC(=O)c1ccc(N2CCNCC2)c([N+](=O)[O-])c1)C12CC3CC(CC(C3)C1)C2 (configuration not stated) | 4% | -12%
O=S(=O)(NCCc1ccccc1)c1ccc(S(=O)(=O)N2CCCCC2)cc1 | -7% | -11%
Nc1c(C(=O)NCCN2CCOCC2)c2nc3ccccc3nc2n1-c1ccccc1 | -13% | 0%
O=C(Cc1cccs1)NNC(=S)NCc1ccc(Cl)cc1 | nt | -24%
CCOC(=O)C1CCN(c2ncnc3c2c(-c2ccccc2)cn3-c2ccccc2)CC1 | i | -10%
COc1ccc(C2c3c(ncn(CCCO)c3=N)Oc3ccc4ccccc4c32)cc1OC (configuration not stated) | i | -28%

Next section.
SMILES | Vaccinia mCherry | Vaccinia Venus
CC(=O)Nc1ccc(S(=O)(=O)NCCC(=O)Nc2cc(C)ccn2)cc1 | ? | -27%
CCCCNC(=O)NNC(=O)c1cc(C)on1 | i | -3%
O=C(O)/C=C/C(=O)Nc1ccc(Cl)cc1C(=O)c1ccccc1 | i[7.34 µM] | 3%[7.34 µM]
CCN(CC)CCCC1(CN)OCCc2ccccc21 (configuration not stated) | nt | 2%
O=c1c(-c2ccccc2)nc2ccccc2n1C(c1ccccn1)c1nc2ccccc2[nH]1 (configuration not stated) | ? | -12%
O=[N+]([O-])c1ccccc1OCCCn1cnc2ccccc21 | i | -16%
Clc1ncc2[nH]cnc2n1 | 2% | 3%
CCCNc1cc(C)c(C#N)c2nc3ccccc3n12 | nt | -17%
CSc1nc2c(c(=O)[nH]1)C(c1cccc(F)c1F)CC(=O)N2 (configuration not stated) | -14% | -13%
CC(CC(C)(C)N1CC1)=NNC(=O)Nc1cccc2ccccc12 | ? | -16%
N#Cc1c(NC(=O)c2cccc(S(=O)(=O)Nc3ccc(C(=O)O)cc3)c2)sc2c1CCCC2 | i | -4%
COc1cccc(C(O)c2nc(-c3cccc(NC(C)=O)c3)cs2)c1 (configuration not stated) | i | 10%
CCN(C[C@H]1N[C@@](Cc2ccccc2)(C(=O)OC)[C@H]2C(=O)N(C)C(=O)[C@@H]12)C(=O)Nc1ccc(C)cc1 | -13% | -11%
O=C(NNS(=O)(=O)c1ccc(Br)cc1)c1ccncc1 | -1% | -4%
CCC(=O)c1ccc(OCC(=O)OCC(=O)N2CCc3ccccc32)cc1 | i | -3%
Cc1cccc(CNCCc2c[nH]c3ccccc23)c1 | ? | -29%
O=S(=O)(c1ccc2nc(Nc3ccccc3)ccc2c1)N1CCCCC1 | -27% | -24%
Cc1ccc(NC(=O)Cc2c(C(=O)O)n(C)c3ccccc23)cc1F | -5% | -2%
COc1cc(C2/C(=C(\O)c3ccc4c(c3)CC(C)O4)C(=O)C(=O)N2Cc2ccco2)ccc1O (configuration not stated) | -14% | 3%
O=C(CCCl)Nc1ccc(S(=O)(=O)NCc2ccco2)cc1 | i | -8%
COc1ccc(CCNC(=O)CN2C(=O)NC(c3ccccc3)(c3ccccc3)C2=O)cc1 | -28% | ?
O=C(CCc1ccccc1)NNC(=O)Cc1ccc(Cl)cc1 | -8% | 3%
COc1ccc(C(=O)NCCn2cc(SCC(=O)Nc3ccc(F)cc3)c3ccccc32)cc1 | -20% | -22%
C/C(=N\OC(=O)NC(C)C)c1sc(-c2ccc(Cl)cc2)nc1C | nt | -13%
C=CCOc1cccc(/C=N/NC(=O)C(=O)NCc2ccco2)c1 | -2% | 6%

Continuation:
SMILES | Vaccinia mCherry | Vaccinia Venus
Cn1c(CCNC(=O)c2ccco2)nc2cc(NC(=O)c3ccccc3Cl)ccc21 | 0% | -5%
Cc1ccc(C(=O)COc2ccccc2N2C(=O)c3ccccc3C2=O)cc1 | -5% | -6%
CCOC(=O)c1c(N2C(=O)Nc3ccccc3N2O)sc2c1CCCCC2 | i | -23%
Cc1cc2ncn(-c3ncnc4sc5c(c34)CCCC5)c2cc1C | nt | -14%
CC(C(=O)Nc1ncn[nH]1)N1C(=O)c2ccccc2C1=O (configuration not stated) | nt | -20%
CCOC(=O)c1cc(-c2ccccc2C)n(CC2CC(c3ccc(OC)cc3)=NO2)n1 (configuration not stated) | -10% | -9%
CCOC(=O)CC(SP1(=S)OCC2(CC=CCC2)CO1)C(=O)OCC (configuration not stated) | i | -11%
Cc1cccnc1C(NC(=O)C1CCN(CCCc2ccccc2)CC1)c1ccc(F)cc1 (configuration not stated) | -20% | -15%
COC(=O)c1ccc(OCCOc2ccccc2)cc1 | nt | -28%
CCC(C(=O)NC1CCCC1)n1c(-c2cc3ccccc3[nH]2)nc2ccccc21 (configuration not stated) | -25% | -13%
O=C(O)Cc1ccc(NC(=O)c2ccc(NC(=O)C3CC3)cc2)cc1 | -3% | -6%
O=C(/C=C/c1ccccc1[N+](=O)[O-])N1CCOCC1 | -14% | -7%
O=C(NCCN1CCOCC1)c1cccc(S(=O)(=O)N(Cc2ccccc2)c2ccccc2)c1 | -10% | -19%
Cc1ccc(NC(=O)COc2ccc3c(c2)OCO3)c(C)c1 | -15% | 2%
Cc1ccc(S(=O)(=O)CC(O)COc2ccc(F)cc2Cl)c(C)c1 (configuration not stated) | -19% | ?
COc1ccc(CNC(=O)Cn2ccc3cc(S(=O)(=O)N4CCCC4)ccc32)c(OC)c1 | -5% | -2%
COC(=O)[C@@]12C[C@@H](CC(=O)NCCCCc3ccccc3)C(=O)N(Cc3ccco3)C1=CCC(C)(C)C2 | ? | ?
O=C1NCC(COCc2ccccc2)O1 (configuration not stated) | nt | -10%
COc1cc(OC)cc(C2=Cc3ccccc3C(CC(C)=O)N2c2ccc(-c3cncnc3)cc2)c1 (configuration not stated) | -4% | -8%
CC(C)CN1CCC(CN(C)Cc2nc(-c3cnccn3)no2)CC1 | i | -2%
O=C(Nc1ccccc1Cl)NC1(C(=O)N2CCCCC2)CCCCC1 | i | -8%
CCOc1ccc(NC(=O)COC(=O)C2CCC(=O)N2)c([N+](=O)[O-])c1 (configuration not stated) | -13% | -14%
Cn1c(=O)c2c(n(Cc3ccccc3)c1=O)NC(=O)C2CC(=O)NCc1cccc(Cl)c1 (configuration not stated) | -24% | -15%
COc1cccc(C(=O)Nc2ccc(S(=O)(=O)N3CCN(C)CC3)cc2)c1 | 13% | -7%
CCOc1ccc2nc(SCc3ccc(F)cc3)sc2c1 | i | -20%

(further entries)
SMILES | Vaccinia mCherry | Vaccinia Venus
COCCn1c(C)cc(C(=O)CSc2n[nH]c(N)n2)c1C | -10% | 0%
CCOc1ccc(NC(=O)CN(c2ccc(Cl)cc2C)S(=O)(=O)c2ccccc2)cc1 | ? | ?
Cc1ccc(-n2ncc(C(=O)NCCN3CCc4ccccc4C3)c2C2CCN(C(=O)OC(C)(C)C)CC2)c(C)c1 | -17% | -11%
COc1ccc(-c2cc3c(c4c2ccn4C)C2CCC3C2)cc1 (configuration not stated) | 0% | 1%
CCc1ccccc1NC(=S)NCc1cccn1C | i | -7%
CCOC(=O)c1c(NS(=O)(=O)c2ccc(Br)cc2)sc2c1CCC2 | -4% | 38%[activator]
CCOC(=O)c1[nH]c2ccccc2c1NC(=O)c1ccc(S(=O)(=O)N2CCCC2)cc1 | ? | -3%
Oc1ccc(-c2nc3ccccc3s2)c(O)c1 | -21% | -23%
COc1ccc(S(=O)(=O)N2CCOCC2)cc1N=Nc1sc(N)nc1-c1ccccc1 | -18% | -4%
Cc1ccc(NC2=NC(c3ccc(F)cc3)n3c(nc(C)cc3=O)N2)c(C)c1 (configuration not stated) | -14% | -5%
CCc1ccc2oc(C(=O)NCC(c3ccc(OC)cc3)N3CCCCC3)c(C)c2c1 (configuration not stated) | -28% | -27%
COC(=O)c1c(NC(=O)CSc2nnnn2-c2ccc3c(c2)OCO3)sc(C)c1C | -5% | 2%
Cc1nnc(NC(=O)CSc2ccc([N+](=O)[O-])cn2)s1 | -15% | 4%
COc1ccc(/C=N\NC(=O)c2ccccc2Br)cc1COc1c(F)c(F)cc(F)c1F | -20% | ?
CC(CCc1ccccc1)NC(=O)Cn1ncc2c3ccccc3n(Cc3ccc(F)cc3)c2c1=O (configuration not stated) | -5% | -8%
O=C(COC(=O)/C=C/c1cccc(Br)c1)Nc1ccc(Cl)cn1 | -4% | -13%
Cc1cc(N(C)C)cc(C)[n+]1[O-] | nt | -12%
CC(=O)Nc1cc(NC(=O)CCCC(=O)O)ccc1Cl | -9% | -3%
COc1ccc(NC(=O)C(C)N2C(=O)c3ccccc3C2=O)cc1S(=O)(=O)N1CCOCC1 (configuration not stated) | -29% | -12%
O=C1/C(=C/c2cccc(Br)c2)SC(=S)N1/N=C/c1cc([N+](=O)[O-])ccc1O | i | -5%
CCCC(=O)Nc1ccc(S(=O)(=O)N2CCc3ccccc32)cc1 | -23% | ?
CNC(=O)C1CCC(Cn2c(=O)c3sccc3n(Cc3cc(C)ccc3C)c2=O)CC1 (configuration not stated) | -7% | -10%
O=C(c1c(F)cccc1F)N(Cc1ccccn1)C1CC1 | -18% | -10%
COc1ccc(C(=O)N2CCNC(=O)C2CC(=O)Nc2ccc(C)cc2)cc1 (configuration not stated) | -2% | -5%
O=C(O)C1CCCCC1C(=O)NCCc1c[nH]c2ccccc12 (configuration not stated) | nt | -16%

Following part
SMILES | Vaccinia mCherry | Vaccinia Venus
Cc1ccc(Cn2c(C(=O)Nc3cccc(Cl)c3)cc3sccc32)cc1 | -2% | 2%
CN1CCN(S(=O)(=O)c2ccc(NC(=O)c3ccccc3Cl)cc2)CC1 | i | -13%
O=C(O)C1CCCCC1C(=O)Nc1cc(C(F)(F)F)ccc1Cl (configuration not stated) | i | -12%
CC1CCCN(CCCNC(=O)Cn2ncc3c([nH]c4ccccc43)c2=O)C1 (configuration not stated) | -2% | -1%
CC(=O)C[C@H](O)CC(=O)[C@@H]1OC(=O)[C@@H](C)C/C=C\Cc2ccccc21 | i | -10%
O=C(Nc1cccc2cccnc12)c1ccc(Br)cc1Br | -8% | -15%

Screening data from PubChem BioAssay.
